Compound activity as filed in PubChem.
NPYLR7 ag: mosquito NPYLR7 agonism | HEK293T NPYLR7/Galpha15, GCaMP6s calcium fluorescence | activation, % at 10 µM | actives 0.15% (n = 270,000) | AID 1259423; in the data active = activation above about 40%;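 note: 0% = vehicle and 100% = reference agonist at the receptor; some compounds past the cut are filed as inactive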
NPYLR7 ag max-min: recorded beside NPYLR7 ag, whose call it bears; activation, %; measured here: Max-Min RFU normalised activation; some inactives read as strong as hits;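 span of the calcium signal over five minutes; 0% = vehicle and 100% = native peptide agonist; compound fluorescence can raise it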
* hit, by the source's call; & = joins results of further samples. Only part of the results is shown (hit frequency here may not be typical).

SMILES	NPYLR7 ag	NPYLR7 ag max-min
Cc1cc(C)n(CCc2nc3cc(NC(=O)NC4CCCCC4)ccc3n2C)n1	-10	-18
COc1cc(OC)cc(C(=O)N2CCN(C(=O)c3cc(-c4ccc(F)cc4)n(-c4ccc(C)cc4)c3C)CC2)c1	11	15
Nc1cc(-c2cccc(Cl)c2)nn1-c1ccc(C(=O)NCCc2ccccc2)cc1	1	-3
COc1cccc(N2C(=O)C3C4C=CC(CC4)C3C2=O)c1 (centres undefined)	6	3
CCc1ccc(OCC(=O)N=Nc2c(O)[nH]c3ccccc23)cc1	-4	-10
CC(C)CCCC1CN(C(=O)CN2CCCCC2=O)CCO1 (centres undefined)	-2	-4
O=C(OCC(=O)N(C1CC1)C1CCS(=O)(=O)C1)c1ccccc1Br (centres undefined)	7	0
CNC(=O)C(C)SCc1ccc(Br)cc1 (centres undefined)	-9	-11
CCC(C)(C)NCC(=O)Nc1sc2c(c1C(N)=O)CCC2	3	1
O=c1cc(CN2CCOC(C(F)(F)F)C2)[nH]c2ccccc12 (centres undefined)	4	-5
CCOC(=O)C(CC)n1nc(C)n2c(cc3sccc32)c1=O (centres undefined)	-16	-15
c1ccc2oc(-c3nn4c(CN5CCOCC5)nnc4s3)cc2c1	2	2
Cc1ccccc1CC(=O)OCc1ccn(C)c(=O)c1	0	-3
COCCNc1nc(Nc2ccccc2)c2cnn(-c3ccccc3)c2n1	1	-2
O=C(NCC1CCCCC1)Nc1ccc2nc([C@H]3C[C@H](O)[C@@H](CO)O3)[nH]c2c1	2	10
CCOC(=O)C1=C(C)NC(=S)NC1c1ccccc1 (centres undefined)	0	-5
Cc1nc(-c2ccncc2)nc(-n2cnnc2S(C)=O)c1C (centres undefined)	6	1
O=C(Cn1nc(-c2ccccc2)c2ccccc2c1=O)N1CC[C@H](O)[C@@H](O)C1	6	3
COCCNC(CC(=O)Nc1cc(Cl)ccc1O)C(=O)O (centres undefined)	5	6
Cc1ccc(C(=O)N(C)c2ccccc2)n1C	9	5
COc1ccc(-c2nc3ccc(C)cn3c2NC(=O)c2ccc(F)cc2)cc1OC	-4	0
CC(Cn1ccnc1C1CCN(C(C)C)CC1)Oc1cccnc1 (centres undefined)	5	1
CC1CCN(CC(=O)Nc2cccc(S(N)(=O)=O)c2)c2cc(Cl)ccc2S1 (centres undefined)	4	1
Cn1cc(CN2CCCN(C(=O)c3ccco3)CC2)c(-c2ccc(C3CCCCC3)cc2)n1	1&-1	0&-1
COc1ccc(-c2csc3nc(CNCc4ccco4)[nH]c(=O)c23)cc1OC	19	28
Other structures
SMILES	NPYLR7 ag	NPYLR7 ag max-min
O=C(O)CCN1C(=O)/C(=C/c2ccc(-c3ccc([N+](=O)[O-])cc3)o2)SC1=S	0	-8
CCOC(=O)CN1CCCOc2c(cccc2OC)C1	6	3
CC(=O)N1CCc2cc(NC(C)C(=O)Nc3ccccc3C)ccc21 (centres undefined)	4	3
CCCn1c(O)c(N=Nc2ccc([N+](=O)[O-])cc2[N+](=O)[O-])c2ccccc21	-6	-6
COc1cccc(-c2cc(-c3ccc(C(=O)N4CCc5ccccc5C4)cc3)[nH]n2)c1	-2	7
Cc1nc2ccc(N=NC(C(=O)Nc3cccnc3)=C(O)c3ccccc3)cc2s1	-3	-6
CN(Cc1cc2n(n1)CCNC2)Cc1noc2c1CCCC2	2	-2
CCc1ccccc1NC(=O)Nc1ccc(N2CCN(c3ccccc3OC)CC2)c(C(=O)NCCN2CCOCC2)c1	15	7
CCOC(=O)C1(Cc2ccccc2C)CCCN(Cc2ccc(N3CCNC3=O)cc2)C1 (centres undefined)	-10	-17
Fc1cccc(F)c1CSc1nc(Oc2ccc3c(c2)OCO3)cc(C(F)(F)F)n1	0	2
Cc1nn(C(C)C(=O)NC2CCCCC2C)c(=O)c2cc3occc3n12 (centres undefined)	1	-4
NCCOCc1ccc(-c2ccc(F)c(CO)c2)cc1	2	1
COc1ccc(NCc2c(C)noc2C)cc1OCC1CCCO1 (centres undefined)	4	2
C=Cc1ccc(S(=O)(=O)N2CCN(c3c4c(nc5ncnn35)CCC4)CC2)cc1	2	-2
Cc1ccccc1-c1cccc(C(=O)NC(C)c2cnn(C)c2)c1 (centres undefined)	-3	-3
CSC(C)C(=O)Nc1ccc(C(=O)N2CCc3ccccc32)cc1 (centres undefined)	-2	-2
CCOC(=O)C1(CC2CC2)CCN(Cc2cnc(-c3ccc(Cl)cc3)nc2)CC1	-20	-26
O=C(c1cc(COc2ccc(-n3cncn3)cc2)on1)N1CCCC1c1ccccn1 (centres undefined)	13&-6	3&-6
COC(=O)CCCC(=O)N1CCCN(Cc2cc(=O)c(OCc3ccc(C(C)(C)C)cc3)co2)CC1	23	12
O=C(CCC(F)(F)F)N(CCN1CCCCC1)CC1CCCN(C2CCCC2)C1 (centres undefined)	0	-2
C=C(C)C(O)(C(=C)C)c1ccc(CN(Cc2ccc3c(c2)OCO3)Cc2ccco2)o1	0	9
CCC(C(=O)N1CCc2nc(-c3ccccc3)nc(N3CC(C)OC(C)C3)c2C1)c1ccccc1 (centres undefined)	-4	-2
O=C(Nc1ccccc1)Nc1nccn(-c2cccc(Cl)c2)c1=O	-1	-3
CC(=O)c1ccc(Cl)s1	3	8
CCCS(=O)(=O)NCc1nnnn1-c1ccccc1	5	3
Later entries.
SMILES	NPYLR7 ag	NPYLR7 ag max-min
O=c1[nH]c(-c2ccccc2)nc2sc(-c3ccccc3)cc12	-2	-4
CCc1nc2c(s1)C(N(C)C(=O)C1CC1c1ccco1)CCC2 (centres undefined)	3	2
COCCCNCc1nc2sc3c(c2c(=O)[nH]1)CCN(Cc1ccccc1)C3	-4	4
COCC(C)n1c(C)cc(C2=NNC(=Nc3ccc(F)cc3F)SC2)c1C (centres undefined)	10	12
CCSCCOC(=O)C1=C(C)N(C)C(=O)NC1c1ccccc1Cl (centres undefined)	6	4
CCNC(=O)C1(C)CCCN1C(=O)c1ccc2c(c1)OCO2 (centres undefined)	4	2
CC(C)CN1CC(C(=O)N2CCc3[nH]nc(-c4cccc(F)c4)c3C2)CC1=O (centres undefined)	9	-2
Cc1cc(C)n(C(=O)OCc2ccccc2)n1	-2	10
CC(C)C(O)CCNC(=O)c1sccc1OC(F)F (centres undefined)	8	4
CC1(O)CC2C(CC1O)C2(C)C (centres undefined)	-4	-10
CNc1cc(N2CCCC2CNCc2c(C)nn(C)c2Cl)ncn1 (centres undefined)	3	1
Cc1ccc(C(=O)N(CCN2C(=O)c3ccccc3C2=O)c2ccc(C)cc2)cc1	-9	-11
COCCOc1cc(NC(=O)N(C)C(C)c2ccccc2F)ccc1OC (centres undefined)	-6	-7
O=C(NC1CCCCC1)c1ccc(NC2CC2)c([N+](=O)[O-])c1	1	0
CCCc1nnc2sc(C(C)Oc3ccccc3)nn12 (centres undefined)	0	-2
COc1ccc(C2=C(C(C)=O)Sc3nnc(C)n3N2C(C)=O)cc1	5	2
CCOC(=O)c1nn(-c2ccc(C)cc2)c(=O)cc1OCc1cccc(C)c1	12	6
CCOC(=O)C1C(=O)C=C(c2cccs2)CC1c1ccccc1C (centres undefined)	5	11
COCc1c(Br)c(C)nc(OCC(=O)N/N=C\c2cc([N+](=O)[O-])ccc2Cl)c1C#N	6	16
CS(=O)(=O)c1ccc(NC(=O)CCCc2c[nH]c3ccccc23)cn1	-2	-2
O=C(NC(c1ccc(Cl)cc1)c1ccccn1)C1CCN(Cc2ccc3ccccc3n2)CC1 (centres undefined)	7	10
COc1ccccc1C(=O)Oc1ccccc1/C=N\n1c(=O)c(C(C)(C)C)nn2cnnc12	-2	-5
CC(=O)Oc1c(-c2ccc(NC(=O)c3ccco3)cc2)c(-c2cccc(N(C)C)c2)nn1-c1cccc(C)c1	15	17
C#CC(O)(c1ccc(OC)c(OC)c1)c1ccc(OC)cc1OC (centres undefined)	-4	-5
CC(=O)NCCc1cn(-c2ccc(-c3ncc(C)cn3)cc2)cn1	15	5
Next part
SMILES	NPYLR7 ag	NPYLR7 ag max-min
CCOC(=O)C1(C)CCCCCN1C(=O)c1ccc(OC)cc1 (centres undefined)	0	-5
Cc1nnc2ccc(OCCNC(=O)Nc3ccc(Cl)cc3)nn12	1	2
CC1CCc2c(sc3nc(/C(C#N)=C/c4ccc(OC(F)F)cc4)[nH]c(=O)c23)C1 (centres undefined)	0	0
CCc1c(C(=O)N2CCc3ccc(F)cc32)cnn1-c1ccccn1	-2	19
Cc1n[nH]c(=O)c2c(NC(=O)CSc3ccc(F)cc3)oc(C)c12	2	4
C/C=C\Cn1c(C(=O)N2CCN(C(=O)C(Cl)c3ccccc3)C(C)C2)cc2ccsc21 (centres undefined)	-7	-5
CCN[C@H]1C[C@H](C)S(=O)(=O)c2sc(S(N)(=O)=O)cc21	5	-2
COc1cc(C=CC(=O)c2c(-c3ccccc3)c3cc([N+](=O)[O-])ccc3[nH]c2=O)cc(OC)c1OC	-4	-6
CC1CCN(Cc2nnnn2CCCC(=O)NC(c2ccccn2)C(F)(F)F)CC1 (centres undefined)	3	-1
NC(=O)COc1ccc(C(=O)NNC(=O)CN2c3cccc4cccc(c34)S2(=O)=O)cc1	31	32
Cn1c2c(c(=O)n(C)c1=O)C(c1ccc(C(F)(F)F)cc1)C1C(=O)OCC1=N2 (centres undefined)	-3	-6
O=C(CCS(=O)(=O)c1ncccc1Cl)Nc1ccc(F)cc1	6	4
Cc1onc(-c2ccccc2)c1C(=O)N1CCN(c2ccc([N+](=O)[O-])cc2)CC1	0	-1
N#CCCN1CCN(S(=O)(=O)c2ccc(S(=O)(=O)NC3CC3)cc2)CC1	-3	-4
Fc1ccccc1Nc1nc(-c2ccc(Cl)cc2)nc2cc(Cl)ccc12	7	18
CN(c1c(F)cccc1F)S(=O)(=O)c1cccc(F)c1	-8	-10
COc1ccc(-c2nn(CCC(=O)O)cc2C=C(C#N)C#N)cc1OC	9	13
C=CCn1c(SCCc2ccccc2)nc2c1c(=O)n(C)c(=O)n2C	-5	7
O=c1oc2ccc3ccccc3c2cc1-c1nnc(Nc2ccccc2)s1	-5	-6
O=C(NC1CC1)C(C1CCCC1)N1CCN(C(=O)c2cccc([N+](=O)[O-])c2)CC1 (centres undefined)	-10	-9
CCN(CC)c1onc(-c2ccccc2)c1CN(CCN1CCOCC1)C(=O)c1ccc2c(c1)OCO2	16	16
Cc1nnc(NC(=O)CSc2nnc(CNC(=O)c3ccco3)n2-c2ccc([N+](=O)[O-])cc2)s1	-8	-5
COCCCN(Cc1ccc(C(O)(c2ccc(OC)cc2)c2ccc(OC)cc2)o1)Cc1cccs1	3	0
O=C(NCCc1nnc2n1CCC2)c1cc2c(s1)CCCC2	-1	-1
COc1ccc(-n2c(=O)[nH]c3c(C(N)=O)nc(-c4ccccc4OC)nc32)cc1OC	-4	-8
Later entries:
SMILES	NPYLR7 ag	NPYLR7 ag max-min
CCc1cc2c(=O)n(CCCOC)c(SCC(=O)Nc3ccccc3[N+](=O)[O-])nc2s1	-5	-9
O=c1cc(CSCc2ccccc2C(F)(F)F)nc2ccccn12	-2	-5
O=c1c2cc3c(=O)n(-c4ncn[nH]4)ccc3nc2ccn1Cc1ccccn1	-13	-17
COc1cc(C=C2SC(=S)NC2=O)ccc1OC(F)F	-5	-3
O=C(N(Cc1ccccn1)Cc1ccco1)C1(c2ccccc2)CCOCC1	13	12
O=C(c1cc(F)cc(F)c1)N(Cc1ccccc1)CC(O)c1ccsc1 (centres undefined)	1	-2
Cc1cccc(CN(C(=O)c2ccc(F)cc2)C2CCC(NC(=O)C3CCN(S(=O)(=O)c4ccccc4)CC3)CC2)c1 (centres undefined)	3	18
COc1ccc(Cl)cc1NC(=O)Nc1ccn(Cc2c(F)c(F)c(F)c(F)c2F)n1	14	14
O=C(NCC1CCCN(C(=O)c2ccoc2)C1)c1ccc(F)cc1 (centres undefined)	-12&-4	-13&8
O=C(COc1ncnc2ccc(Br)cc12)NCCC1=CCCCC1	7	2
CCN(CC1CCCO1)C(=O)Cn1nnnc1CN1CCCC1 (centres undefined)	-3	-4
COc1ccc(N2CCCn3c2nc2c3c(=O)[nH]c(=O)n2C)cc1Cl	5	1
CCCCN1CCN(C(=O)Cc2ccccn2)CC1=O	11	7
CCOC(=O)c1cc(-c2ccc3ccccc3c2)n(-c2ccc(C(=O)NC3Cc4ccccc4C3)cc2)n1	4	2

In the list so far, 16 have a Cl atom:
SMILES	NPYLR7 ag	NPYLR7 ag max-min
Nc1cc(-c2cccc(Cl)c2)nn1-c1ccc(C(=O)NCCc2ccccc2)cc1	1	-3
COCCNC(CC(=O)Nc1cc(Cl)ccc1O)C(=O)O (centres undefined)	5	6
CC1CCN(CC(=O)Nc2cccc(S(N)(=O)=O)c2)c2cc(Cl)ccc2S1 (centres undefined)	4	1
CCOC(=O)C1(CC2CC2)CCN(Cc2cnc(-c3ccc(Cl)cc3)nc2)CC1	-20	-26
O=C(Nc1ccccc1)Nc1nccn(-c2cccc(Cl)c2)c1=O	-1	-3
CC(=O)c1ccc(Cl)s1	3	8
CCSCCOC(=O)C1=C(C)N(C)C(=O)NC1c1ccccc1Cl (centres undefined)	6	4
CNc1cc(N2CCCC2CNCc2c(C)nn(C)c2Cl)ncn1 (centres undefined)	3	1
COCc1c(Br)c(C)nc(OCC(=O)N/N=C\c2cc([N+](=O)[O-])ccc2Cl)c1C#N	6	16
O=C(NC(c1ccc(Cl)cc1)c1ccccn1)C1CCN(Cc2ccc3ccccc3n2)CC1 (centres undefined)	7	10
Cc1nnc2ccc(OCCNC(=O)Nc3ccc(Cl)cc3)nn12	1	2
C/C=C\Cn1c(C(=O)N2CCN(C(=O)C(Cl)c3ccccc3)C(C)C2)cc2ccsc21 (centres undefined)	-7	-5
O=C(CCS(=O)(=O)c1ncccc1Cl)Nc1ccc(F)cc1	6	4
Fc1ccccc1Nc1nc(-c2ccc(Cl)cc2)nc2cc(Cl)ccc12	7	18
COc1ccc(Cl)cc1NC(=O)Nc1ccn(Cc2c(F)c(F)c(F)c(F)c2F)n1	14	14
COc1ccc(N2CCCn3c2nc2c3c(=O)[nH]c(=O)n2C)cc1Cl	5	1
